Screening data as filed in PubChem BioAssay.
SARS PLpro yeast: inhibitors of SARS-CoV papain-like protease in yeast. S. cerevisiae expressing SARS-CoV PLpro, growth rescue; control for the full effect not named in the record. Potency, µM (titrated, usually from 32.9 µM), without a hit: top-dose activity, positive = growth rescue. 330,000 compounds, 0.19% hits; further: 0% is about no effect; nearly all actives have a fitted effect of over 55% in size; growth read by luminescence after 48 h
2A StopGo: FMDV 2A StopGo reporter, luciferase signal. 410,000 compounds, 1.2% hits. AID 1159524. Potency, µM (doses to about 57.9 µM), for the others: top-dose signal change, negative = less light. human cells with a luciferase reporter of 2A StopGo recoding; control for the full effect not named in the record; active = well fitted falling curve with a large enough effect; inconclusive = small, poorly fitted or top-dose-only effect; inactive = no such curve, though single readings can be large or run the other way; tested in HEK293T cells; further: on the % scale 0 is the no-effect control and ±100 the full control effect; nearly all actives have a fitted effect of over 45% in size; luciferase light after 4 h
RE007 growth inh: less growth of the S. pombe RE007 Vpr strain; S. pombe RE007 Vpr strain, BacTiter-Glo ATP luminescence, 24 h; control for the full effect not named in the record; Potency, µM (top dose mostly 92.2 µM), inactives show top-dose activity change, negative = less growth; 360,000 compounds, 0.21% hits; AID 651644; active = well fitted falling curve with a large enough effect; inconclusive = small, poorly fitted or top-dose-only effect; inactive = no such curve, though single readings can be large or run the other way;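 further: on the % scale 0 is the no-effect control and ±100 the full control effect; nearly all actives have a fitted effect of over 50% in size; the assay follows cell death caused by Vpr and the record does not say whether a fall means rescue or toxicity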
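Fission yeast RE007 carrying one integrated HIV-1 vpr copy, seeded at OD 0.01 in PMG+AL medium with 23 nL pinned compound. Grown 24 h at 30 degrees; viability read by BacTiter-Glo luminescence after 5 min.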
Cruzain inh Det: cruzain (T. cruzi) inhibition with detergent; 200,000 compounds, 0.43% hits; P25779; Potency, µM, inactives show max response, negative = inhibition, actives largely listed as inhibitors; purified cruzain, Z-FR-AMC fluorescence, 0.01% Triton; AID 1478; active means well fitted curve in the direction sought with a large enough effect; inconclusive means small, poorly fitted or top-dose-only effect, or another doubt; inactive means no such curve, though single readings can be large; an effect the other way counts as inactive or inconclusive;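 further: plate controls were neutral wells for no effect and buffer without enzyme for full effect; nearly all actives have a fitted effect of over 40% in size; top concentration of the series not given in the record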
Target sequence (P25779 123-467 limits assumed): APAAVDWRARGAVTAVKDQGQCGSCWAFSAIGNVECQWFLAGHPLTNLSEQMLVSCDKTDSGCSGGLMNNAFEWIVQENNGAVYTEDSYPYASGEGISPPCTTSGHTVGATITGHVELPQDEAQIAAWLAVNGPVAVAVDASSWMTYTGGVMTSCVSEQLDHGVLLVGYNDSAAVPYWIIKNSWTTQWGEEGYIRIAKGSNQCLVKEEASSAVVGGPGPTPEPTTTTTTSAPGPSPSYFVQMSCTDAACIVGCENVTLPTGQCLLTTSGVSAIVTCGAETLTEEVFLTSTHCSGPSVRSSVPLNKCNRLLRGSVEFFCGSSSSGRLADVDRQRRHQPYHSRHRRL
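Steps: dispense cruzain (1.5 nM final) in acetate buffer pH 5.5 with DTT and 0.01% Triton X-100; pin-transfer compounds; incubate 15 min RT; add Z-FR-AMC (2 uM final); read fluorescence every 30 s, using the 60 s intensity change.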
NS1 function inh: blocks influenza NS1 protein function; Potency, µM (doses to about 46.1 µM), for inactives: top-dose activity, positive = more growth; S. cerevisiae slowed by influenza A NS1, growth recovery by OD600; 270,000 compounds, 0.4% hits; AID 2326; further: actives are rising curves; nearly all actives have a fitted effect of over 50% in size
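OD600 was taken as the measure of yeast growth restored by compound in an NS1-expressing S. cerevisiae strain. Cells had been washed out of glucose medium and diluted 1:100 into galactose -URA medium, pH 6.0.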
LASV entry inh: blocks Lassa virus binding to or entry into cells | 300,000 compounds, 1.2% hits | Lassa virus pseudotype entry inhibition, cell reporter; control for the full effect not named in the record | Potency, µM (highest dose often 37.9 µM), for inactives: at the top dose activity change, negative = inhibition, usual class: inhibitors; active means well fitted inhibition curve with a large enough effect; inconclusive means small, poorly fitted or top-dose-only effect, or effect the other way; inactive means flat fitted curve, though single readings scatter; tested in HEK293 cells; further: on the % scale 0 is the no-effect control and ±100 the full control effect; nearly all actives have a fitted effect of over 50% in size; luciferase read-out
MARV entry inh: blocks Marburg virus binding to or entry into cells; Marburg virus pseudotyped entry inhibition, cell reporter; control for the full effect not named in the record; about a third of the inactives were read at about 46 µM; AID 540276; Potency, µM (highest dose often 37.8 µM), inactives show at the top dose activity change, negative = inhibition, hits mostly inhibitors; 300,000 compounds, 1.8% hits; active = well fitted inhibition curve with a large enough effect; inconclusive = small, poorly fitted or top-dose-only effect, or effect the other way; inactive = flat fitted curve, though single readings scatter; tested in HEK293 cells; about a fifth of its hits are not listed in these tables; further: on the % scale 0 is the no-effect control and ±100 the full control effect; luciferase read-out
Cruzain noTriton: inhibitors of Trypanosoma cruzi cruzain without detergent | purified cruzain, Z-FR-AMC fluorescence, no detergent | Potency, µM, for the others: max response, negative = inhibition, hits mostly inhibitors | 200,000 compounds, 2.3% hits; active means well fitted curve in the direction sought with a large enough effect; inconclusive means small, poorly fitted or top-dose-only effect, or another doubt; inactive means no such curve, though single readings can be large; an effect the other way counts as inactive or inconclusive;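 further: plate controls were enzyme without inhibitor for no effect and buffer without enzyme for full effect; nearly all actives have a fitted effect of over 40% in size; top concentration of the series not given in the record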
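Purified cruzain at 1.5 nM, pre-incubated 15 min with compound at room temperature in 100 mM sodium acetate pH 5.5, 5 mM DTT, 0.00005% Triton X-100. Reaction started with 2 uM Z-FR-AMC; AMC fluorescence increase over 60 s gives rate.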
* = called active by the depositor; u = inconclusive; x = no result given; & = joins results of further samples; [ ] = dose if it differs, or a comment. Unless noted, the call rests on the fitted dose curve; in most records, active means well fitted rising curve with a large enough effect; inconclusive means small, poorly fitted or top-dose-only effect; inactive means no such curve, though single readings can be large or run the other way. Potency means the concentration at half of the fitted maximal effect.

structure	Cruzain noTriton	LASV entry inh	RE007 growth inh	NS1 function inh	Cruzain inh Det	2A StopGo	MARV entry inh	SARS PLpro yeast
COc1cccc(CNC(=O)CSCC(=O)Nc2ccc(C)cc2)c1	x	0%	4%	x	x	-1%	-28%	0%
Cc1nc(SCCCSc2n[nH]c(C)n2)n[nH]1	-2%	3%	10%	-3%	-0.3%	3%	7%&7%	6%
COc1cccc(NC(=O)C(NCC(C)(C)CN(C)C)c2ccccc2)c1 (stereo not drawn)	-4%	18%	13%	4%	-4.1%	6%	-4%[46.1 µM]	-3%
CCOC(=O)c1cnc2ccc(C)cn2c1=O	x	x	8%	3%	x	4%	x	-1%
O=C1CN=C(Nc2ccccc2Cl)N1Cc1ccc2c(c1)OCO2	0%	5%	1%	24%	-3.1%	-12%	-6%	1%
CCc1ccc(CNC(=O)c2c(C)oc3ncnc(N4CCOCC4)c23)cc1	0%	23%[46.1 µM]	x	x	-2.4%	u	x	x
Cc1cc(C(=O)C(C)OC(=O)c2cnccn2)c(C)n1-c1ccccc1 (stereo not drawn)	x	5%[46.1 µM]	24%	x	x	3%	17%	7%
CCN1C(=O)N(CC)C2NC(=S)NC21 (stereo not drawn)	8%	0%	-1%	-2%	-4.8%	-17%	u	5%
CCC1(CCC(C)C)C(=O)NC(=S)NC1=O	x	13%[46.1 µM]	6%	x	x	-13%	13%[46.1 µM]	x
COc1ccc(NC(=O)C2CCN(C(=O)Nc3ccccc3)CC2)cc1S(=O)(=O)N(C)C	x	12%	-22%	x	x	-11%	3%	-24%
O=C(NCc1cccc(Cl)c1)c1cccc(OC2CCN(C(=O)C3CC3)CC2)c1	x	u	4%	-10%	x	16µM*	u	-2%
CC(=O)c1cccc(NC(=O)C(C)N2CCc3ccccc3C2)c1 (stereo not drawn)	x	-11%	3%	-4%	x	u	-2%[46.1 µM]	1%
Cc1nn(-c2ccccc2)c2c1C1(C(=O)N(C)c3ccccc31)N(c1ccccc1)C(=O)N2 (stereo not drawn)	2%	u	1%	-2%	4.1%	15%	-5%	-1%
Cc1csc(NC(=O)CN(C)S(=O)(=O)c2cccc3cccnc23)n1	15%	x	3%	-7%	0.5%	-22%	x	-9%
CCn1nnnc1NCc1c(OC)ccc2ccccc12	x	-12%	5%	x	x	8%	-4%	0%
NC1=NC(=O)/C(=C/c2c(OS(=O)(=O)c3ccc(Cl)cc3)ccc3ccccc23)S1	u	1%	5%	u	-2.6%	-3%	-24%	-6%
Cc1cc(C)cc(C(=O)OCC(=O)NCc2ccco2)c1	x	-21%[46.1 µM]	-3%	x	x	-10%	u	1%
CC(=O)c1cn(Cc2ccccc2F)c2ccccc12	x	x	12%	-4%	x	u	x	3%
COc1ccccc1Nc1nc(-c2ccccc2)nc2ccccc12	x	x	-15%	3%	x	-8%	x	-2%
CCC(C)(C)NC(=O)C(c1ccc(O)cc1)N(C(=O)Cn1nnc2ccccc21)c1ccc(NC(C)=O)cc1 (stereo not drawn)	x	x	-2%	5%	x	0%	x	-1%
CC(=O)N1CCc2cc(S(=O)(=O)NC(CC(C)C)C(=O)Nc3cc(C(=O)O)ccc3C)ccc21 (stereo not drawn)	-9%	3%	23%	2%	1.7%	-15%	5%	u
COc1ccc(-c2nn(-c3ccccc3C)cc2CNC(C)c2cn(C)nc2C)cc1F (stereo not drawn)	x	9%[46.1 µM]	-1%	-4%	x	-11%	u	0%
CC(C)n1nnnc1-c1cc(Cl)cc(Cl)c1	-1%	-12%	14%	-16%	2.6%	-4%	18%	2%
OC(COc1ccccc1)Cn1cc(Br)cn1 (stereo not drawn)	-1%	-20%	1%	-5%	0.9%	-2%	21%[46.1 µM]	3%
CC(C)OC(=O)CCCN1C(=O)c2ccc(N)cc2C1=O	3%	5%	14%	-6%	-0.4%	0%	u	2%
COc1cccc(-n2c(SCC(=O)N3CCc4ccccc43)nnc2-c2c[nH]c3ccccc23)c1	u	-9%	7%	6%	1.4%	-28%	0%	8%
CC(C)c1ccc(NC(=O)C2C3C=CC(CC3)C2C(=O)O)cc1 (stereo not drawn)	x	-17%	1%	x	x	-18%	3%	x
Cc1ccc(C)c(CNC(=O)CN2C(=O)CSc3ccc(S(=O)(=O)N(C)C)cc32)c1	-12%	1%[46.1 µM]	x	x	2.0%	-4%	x	x
COc1ccc(CNC(=O)CCCc2ccccc2)cc1	11%	5%	7%	-21%	-4.5%	-11%	-18%	19%
COc1cccc(N/N=C(\C#N)S(=O)(=O)C(C)(C)C)c1	x	0%[46.1 µM]	-12%	x	x	-8%	-6%[46.1 µM]	0%
COc1ccc(/C=N/NC(=O)c2nn(-c3ccccc3)c(=O)c3c(N)scc23)cc1	20µM*	22%	-17%	1%	-10%	-18%	0%	2%
Cc1cccc(C)c1NC(=S)N1CCCN(Cc2ccc(F)cc2)C1	x	-24%[46.1 µM]	-14%	x	x	-9%	u	3%
CN(C(=O)Cn1nnc2ccccc2c1=O)C1CCCCC1	x	-17%[46.1 µM]	19%	-1%	x	7%	u	0%
COCCn1c(SCC(=O)NC2CCCC2)nnc1-c1ccco1	x	2%[46.1 µM]	6%	-3%	x	5%	3%[46.1 µM]	0%
CSCCC(NC(=O)/C(=C\c1ccc(Cl)cc1)NC(=O)c1ccccc1)C(=O)O (stereo not drawn)	x	-7%[46.1 µM]	-9%	0%	x	2%	4%[46.1 µM]	1%
O=C(c1ccc(S(=O)(=O)N2CCOCC2)cc1)N(c1ccccc1)C1C=CS(=O)(=O)C1 (stereo not drawn)	3%	3%	-7%	-5%	5.0%	x	0%	u
CC(=O)N(Cc1ccc(F)cc1)Cc1nc2ccccc2c(=O)[nH]1	x	13%	13%	-3%	x	-11%	-5%[46.1 µM]	0%
COc1ccc2nc3sc(C(=O)NCCc4ccc(Cl)cc4)cc3cc2c1	-6%	-2%[46.1 µM]	x	x	-1.8%	14%	x	x
O=C(Nc1cccc(S(=O)(=O)N2CCCCC2)c1)C1CCC1	x	u	-6%	x	x	20%	-10%	4%
CS(=O)(=O)N1N=C(c2cccs2)CC1c1ccccc1F (stereo not drawn)	x	u	-4%	4%	x	0%	10%[46.1 µM]	3%
CCCCn1nc2cc(C(=O)NCc3ccco3)ccc2c1OCC	-3%	x	-3%	-4%	1.1%	7%	x	4%
NC(=O)c1ccccc1NC(=O)CN1c2ccccc2S(=O)(=O)c2ccccc21	-8%	4%[46.1 µM]	x	x	-2.6%	-25%	x	x
CC1(C)Cc2c(sc3c2c(=N)n(Cc2ccco2)c(=O)n3CC(=O)Nc2cccc(Cl)c2)CO1	-28%	-26%	-23%	u	-5.4%	-14%	-15%	14%
O=C(COc1ccc(F)cc1F)Nc1cccnc1	x	x	-10%	5%	x	23%	x	-4%
CCn1ccc(C(=O)NCCCN2CCCC2=O)n1	x	27%[46.1 µM]	-21%	9%	x	u	15%[46.1 µM]	-2%
CCOc1ccc(S(=O)(=O)NCCCN2CCCC2=O)cc1	x	-1%	3%	-1%	x	16%	u	28%
COc1ccc(C(=O)NCCc2ccccc2)cc1OC	x	x	-1%	1%	x	77%[activator]	x	-2%
CCOC(=O)c1c(C)n(C)c2cc(-c3cccc(C(F)(F)F)c3)c(O)cc12	u	5%	2%	-4%	-2.6%	-13%	25%	-18%
O=C(NC1CCC(C(=O)O)CC1)OCc1ccccc1 (stereo not drawn)	-1%&-3%	-2%&0%	-14%&3%&4%	-4%&7%	20%&6.6%	-25%&-3%&3%	15%[46.1 µM]	3%&4%
CCC(C)Cn1c(C(C)C)nc2ccccc21 (stereo not drawn)	x	u	-2%	3%	x	u	-5%[46.1 µM]	1%

More structures
structure	Cruzain noTriton	LASV entry inh	RE007 growth inh	NS1 function inh	Cruzain inh Det	2A StopGo	MARV entry inh	SARS PLpro yeast
Cc1ccc(-c2nnc(SCC(=O)N/N=C/c3ccccc3C(=O)O)n2C2CCCCC2)cc1	x	x	3%	24%	x	-16%	x	-2%
CCOC(=O)c1cn[nH]c1NC(=S)Nc1ccc(OC)cc1	x	u	19%	1%	x	u	u	-2%
C=CCn1c(SCC(=O)Nc2ccccc2)nnc1-c1cccc(S(=O)(=O)N2CCOCC2)c1	u	1%	-7%	-5%	-0.7%	4%	8%&4%	-4%
O=C(CSc1ccc2nnc(-c3ccccn3)n2n1)Nc1ccc(F)cc1F	x	u	1%	2%	x	11%	u	7%
O=C(CN1CC(=O)Oc2ccccc21)OCC(=O)c1ccc(F)cc1	x	u	-6%	x	x	-22%	-3%[46.1 µM]	-11%
Cn1c(SCC(=O)Nc2cccnc2)nnc1-c1ccccc1F	x	11%	5%	x	x	u	u	-1%
O=C(Nc1cnn(Cc2ccc(F)cc2)c1)c1cc(-c2cccs2)on1	u	-9%	-11%	-9%	-2.2%	-5%	-15%	7%
O=[N+]([O-])c1cccc(-n2nncc2-c2ccccc2)c1	x	9%[46.1 µM]	1%	-13%	x	-14%	-31%[46.1 µM]	-7%
COc1ccc(Br)cc1S(=O)(=O)n1ccnc1C	-7%	-2%	5%	12%	8.7%	55%[activator]	10%	-1%
CCOc1c2ccc(C(=O)NCc3ccc4c(c3)OCO4)cc2nn1C	-1%	x	-10%	0%	-1.6%	23%	x	5%
Cc1n[nH]c(C)c1S(=O)(=O)N1CCCC(C(=O)NC2CCCc3ccccc32)C1 (stereo not drawn)	16%	x	-1%	-35%	0.6%	u	2%	-6%
CCC(NC(=S)NCc1ccccc1)C(=O)O (stereo not drawn)	0%	-7%	22%	-2%	0.8%	-6%	-6%	0%
Cc1ccc(CN(C(=O)COc2ccc(C(C)C)cc2)C2CCS(=O)(=O)C2)o1 (stereo not drawn)	u	14%[46.1 µM]	x	x	-7.0%	-18%	5%[46.1 µM]	x
Nc1cn(C2OC(CO)C(O)C2O)c(=O)[nH]c1=O (stereo not drawn)	x	x	-2%	27%	x	12%	x	25%
O=C(NCc1ccncc1)Nc1cccc([N+](=O)[O-])c1	x	x	1%	0%	x	7%	x	0%
